Marburg entry inh – qHTS for inhibitors of binding or entry into cells for Marburg Virus; Potency, µM (titrated, usually from 37.8 µM), for inactives: at the highest dose activity change, negative = inhibition, actives largely listed as inhibitors; AID 540276, 2011; Marburg virus pseudotyped entry inhibition, cell reporter; control for the full effect not named in the record; about a third of the inactives were read at about 46 µM; hit rate 1.8% among 300,000; active = well fitted inhibition curve with a large enough effect; inconclusive = small, poorly fitted or top-dose-only effect, or effect the other way; inactive = flat fitted curve, though single readings scatter; tested in HEK293 cells; about a fifth of its hits are not listed in these tables; note: % is set by controls: 0 for no effect and ±100 for the full control effect; luciferase read-out
LASV entry inh – qHTS for Inhibitors of binding or entry into cells for Lassa Virus; Lassa virus pseudotype entry inhibition, cell reporter; control for the full effect not named in the record; Potency, µM (top dose mostly 37.9 µM), inactives show at the top dose activity change, negative = inhibition, actives largely listed as inhibitors; hit rate 1.2% among 300,000; AID 540256, 2011; active means well fitted inhibition curve with a large enough effect; inconclusive means small, poorly fitted or top-dose-only effect, or effect the other way; inactive means flat fitted curve, though single readings scatter; tested in HEK293 cells; note: % is set by controls: 0 for no effect and ±100 for the full control effect; nearly all actives have a fitted effect of over 50% in size; luciferase read-out
Cruzain inh Det – qHTS Assay for Promiscuous and Specific Inhibitors of Cruzain (with detergent) | purified cruzain, Z-FR-AMC fluorescence, 0.01% Triton | Potency, µM, inactives show max response, negative = inhibition, hits mostly inhibitors | hit rate 0.43% among 200,000 | AID 1478, 2009;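 note: plate controls were neutral wells for no effect and buffer without enzyme for full effect; nearly all actives have a fitted effect of over 40% in size; top concentration of the series not given in the record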
Target sequence (P25779 123-467 limits assumed): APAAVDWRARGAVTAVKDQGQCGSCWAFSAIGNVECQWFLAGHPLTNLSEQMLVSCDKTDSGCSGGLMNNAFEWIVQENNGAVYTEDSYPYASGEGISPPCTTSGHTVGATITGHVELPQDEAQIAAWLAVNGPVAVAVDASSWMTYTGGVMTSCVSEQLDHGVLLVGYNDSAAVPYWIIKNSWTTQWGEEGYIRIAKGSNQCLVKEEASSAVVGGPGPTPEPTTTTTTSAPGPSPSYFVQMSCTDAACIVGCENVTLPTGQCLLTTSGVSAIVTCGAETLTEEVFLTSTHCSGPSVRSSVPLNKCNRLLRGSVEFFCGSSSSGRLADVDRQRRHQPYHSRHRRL
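Purified cruzain (1.5 nM final) was preincubated with compounds for 15 min at room temperature in 100 mM sodium acetate pH 5.5, 5 mM DTT, 0.01% Triton X-100. Reaction started with 2 uM Z-FR-AMC; AMC fluorescence change over 60 s gave activity.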
NS1 function inh – qHTS Assay for Inhibitors of Influenza NS1 Protein Function | S. cerevisiae slowed by influenza A NS1, growth recovery by OD600 | Potency, µM (doses to about 46.1 µM), without a hit: at the top dose activity, positive = more growth | hit rate 0.4% among 270,000 | AID 2326, 2010; active means well fitted rising curve with a large enough effect; inconclusive means small, poorly fitted or top-dose-only effect; inactive means no such curve, though single readings can be large or run the other way; note: nearly all actives have a fitted effect of over 50% in size
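A cell-based growth assay was used: compounds that relieve NS1-induced slow growth of budding yeast raise OD600. Assay medium was yeast nitrogen base with ammonium sulphate and -URA supplement, pH 6.0, with 2% galactose.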
2A StopGo – High Throughput Screening for Foot and Mouth Disease Virus Antivirals. Potency, µM (highest dose often 57.9 µM), without a hit: top-dose signal change, negative = less light. hit rate 1.2% among 410,000. human cells with a luciferase reporter of 2A StopGo recoding; control for the full effect not named in the record; active = well fitted falling curve with a large enough effect; inconclusive = small, poorly fitted or top-dose-only effect; inactive = no such curve, though single readings can be large or run the other way; tested in HEK293T cells; note: % is set by controls: 0 for no effect and ±100 for the full control effect; nearly all actives have a fitted effect of over 45% in size; luciferase light after 4 h
Cruzain inh noDet – qHTS Assay for Promiscuous and Specific Inhibitors of Cruzain (without detergent) | purified cruzain, Z-FR-AMC fluorescence, no detergent | Potency, µM, without a hit: max response, negative = inhibition, actives largely listed as inhibitors | hit rate 2.3% among 200,000;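 note: plate controls were enzyme without inhibitor for no effect and buffer without enzyme for full effect; nearly all actives have a fitted effect of over 40% in size; top concentration of the series not given in the record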
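Purified cruzain at 1.5 nM, pre-incubated 15 min with compound at room temperature in 100 mM sodium acetate pH 5.5, 5 mM DTT, 0.00005% Triton X-100. Reaction started with 2 uM Z-FR-AMC; AMC fluorescence increase over 60 s gives rate.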
SARS PLpro yeast – qHTS of Yeast-based Assay for SARS-CoV PLP; S. cerevisiae expressing SARS-CoV PLpro, growth rescue; control for the full effect not named in the record; hit rate 0.19% among 330,000; Potency, µM (top dose mostly 32.9 µM), inactives show at the highest dose activity, positive = growth rescue; active means well fitted rising curve with a large enough effect; inconclusive means small, poorly fitted or top-dose-only effect; inactive means no such curve, though single readings can be large or run the other way; note: 0% is about no effect; nearly all actives have a fitted effect of over 55% in size; growth read by luminescence after 48 h
RE007 growth inh – qHTS Assay for Inhibitors of the HIV-1 protein Vpr | S. pombe RE007 Vpr strain, BacTiter-Glo ATP luminescence, 24 h; control for the full effect not named in the record | Potency, µM (titrated, usually from 92.2 µM), for inactives: top-dose activity change, negative = less growth | hit rate 0.21% among 360,000; active = well fitted falling curve with a large enough effect; inconclusive = small, poorly fitted or top-dose-only effect; inactive = no such curve, though single readings can be large or run the other way;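 note: % is set by controls: 0 for no effect and ±100 for the full control effect; nearly all actives have a fitted effect of over 50% in size; the assay follows cell death caused by Vpr and the record does not say whether a fall means rescue or toxicity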
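Fission yeast strain RE007, carrying one chromosomally integrated HIV-1 vpr copy, was seeded at OD 0.01 in PMG+AL medium with 23 nL pinned compound. After 24 h at 30 °C and 99% humidity, viability was read by BacTiter-Glo luminescence.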
Starred values were filed as active, the others as inactive; ? = inconclusive; . = no result given; & = joins results of further samples; ! = not active in a repeat; [ ] = remark or other dose. Unless noted, calls come from the whole dose curve; as a rule, active = well fitted curve in the direction sought with a large enough effect; inconclusive = small, poorly fitted or top-dose-only effect, or another doubt; inactive = no such curve, though single readings can be large; an effect the other way counts as inactive or inconclusive. Potency is the fitted concentration of half-maximal effect. No enrichment for hits. Share with any hit: about 4.7%.

SMILES	Marburg entry inh	LASV entry inh	Cruzain inh Det	NS1 function inh	2A StopGo	Cruzain inh noDet	SARS PLpro yeast	RE007 growth inh
CCn1nc(CC(=O)Nc2nnc(CC(=O)N3CCOCC3)s2)c2ccccc2c1=O	17%	5%	2.2%	-2%	-6%	-1%	0%	5%
COc1cc(C(=O)N/C(=C\c2cn(C)c3ccccc23)C(=O)NCCCN2CCOCC2)cc(OC)c1OC	.	.	.	-14%	1%	.	1%	3%
O=C(c1cncc(Br)c1)N1CCc2ccccc2C1	?	8%	0.1%	-13%	-16%	-6%	-1%	-13%
CCC(C)(C)NC(=O)C(c1ccc(C)o1)N(C(=O)c1csnn1)c1cccc(F)c1 (stereo unspecified)	?	-2%	-2.6%	4%	-19%	2%	-10%	3%
Cc1nc2c(sc3nc4c(cc32)COC(C)(C)C4)c(=O)o1	-1%	2%	0.9%	16%	-9%	-9%	3%	-14%
CCC1CCCCN1C(=O)CCc1nnc(Cc2c[nH]c3ccccc23)o1 (stereo unspecified)	.	.	.	5%	7%	.	-1%	-8%
CC(=O)Nc1ccc(NC(=O)C(C)OC(=O)COc2ccc(Nc3ccccc3)cc2)cc1 (stereo unspecified)	3%	2%	.	.	-23%	.	1%	-28%
COc1ccc(C(=O)OCC(=O)NC(=O)CCSc2ccccc2)cc1	.	.	1.9%	4%	13%	11%	-10%	-8%
CCC(C)NC(=O)CN(c1cc(C)cc(C)c1)S(=O)(=O)c1c(C)[nH]c(=O)[nH]c1=O (stereo unspecified)	.	.	.	-5%	-4%	.	0%	-6%
Cc1csc(SCC(=O)c2ccc(S(=O)(=O)N3CCOCC3)cc2)n1	-8%	-7%	-2.8%	0%	6%	10%	4%	-6%
Cc1ccc(C)c(N2CCN(C(=O)CC3Sc4ccccc4NC3=O)CC2)c1 (stereo unspecified)	?	?	-7.9%	-89%	?	-5%	-15%	27%
Cc1cc(C)c(NC(=O)CCCOC(=O)C2=COCCO2)c(C)c1	2%	19%	0.1%	-5%	-17%	-1%	3%	0%
O=C(CCN1C(=O)C2C3C=CC(C4CC34)C2C1=O)Nc1ccc(Cl)cc1O (stereo unspecified)	-3%	13%	.	4%	23%	.	-2%	-7%
Cc1ccc(C)n1-c1nnc(N2CCCC(C(=O)NCc3ccc(Cl)cc3)C2)s1 (stereo unspecified)	11%[46.1 µM]	0%[46.1 µM]	-1.8%	.	-30%	8%	.	.
CSc1ccc(/C=C/C(=O)OCC(=O)NC(C)C)cc1	19%[46.1 µM]	-3%	.	9%	2%	.	-4%	-13%
O=S(=O)(c1cccc(F)c1)N1CCN(Cc2ccc3c(c2)OCO3)CC1	0%	-2%	-3.1%	-7%	-20%	-14%	8%	6%
COc1ccc(NC(=O)C/C(C)=N/NC(=O)c2cnccn2)cc1Cl	.	.	.	-7%	-9%	.	-2%	-3%
CC(C)NCCOCCOc1ccc(Cl)cc1Br	?	?	-3.2%	3%	-7%	2%	-18%	-3%
COc1ccc(S(=O)(=O)N2CCCCC2)cc1NC(=O)c1cccs1	.	.	.	1%	-18%	.	5%	11%
COc1cc(OC)c(C(=O)NCCCN2CCOCC2)cc1OC	8%	?	.	.	7%	.	1%	22%
O=C(Cn1nnc(-c2cccs2)n1)NNC(=O)c1ccccc1Cl	0%[46.1 µM]	-7%[46.1 µM]	.	0%	-3%	.	-1%	0%
Cc1ccoc1C(=O)N1CCCC(CCC(=O)N2CCN(c3ccccn3)CC2)C1 (stereo unspecified)	?	0%	.	0%	?	.	-1%	-7%
CCc1ccc(OCC(=O)NNC(=O)C2CCC2)cc1	1%	15%	.	.	-2%	.	2%	-12%
CN(C(=O)c1cc2c(s1)-c1ccc(Cl)cc1SC2)c1cccc(C(F)(F)F)c1	0%[46.1 µM]	-23%[46.1 µM]	-6.8%	.	-12%	0%	.	.
O=C(c1ccccc1CCc1ccccc1)N1CCOCC1	17%	24%	-2.2%	-1%	-4%	-1%	2%	27%
CN1/C(=C\C(=O)COC(=O)C2COc3ccccc3O2)C(C)(C)c2ccccc21 (stereo unspecified)	-7%[46.1 µM]	5%	-2.2%	-35%	-10%	-13%	-5%	-9%
O=C(C[n+]1cccc2ccccc21)c1ccc(Cl)cc1	.	.	.	6%	-13%	.	0%	-8%
Cc1cccc(NC(=O)CCNS(=O)(=O)c2cccc3nsnc23)c1	28%&28%[46.1 µM]	3%	2.7%	-26%	37%[activator]	0%	5%	?
CN(CCCCC(=O)/C=N/O)Cc1ccccc1 (tested in a mixture with another compound)	21%	-20%	1.1%	-3%	22%	-1%	-7%	12%
Cc1ccc(C(=O)CNc2ccc(Br)cc2)cc1	?	?	2.1%	-14%	42%[activator]	?	20%	-26%
Cc1ccc(NC(=O)CSc2nc(-c3ccco3)nc3cc(=O)[nH]n23)c(Cl)c1	.	.	.	0%	-22%	.	-5%	15%
N#C/C(=C\c1c(N2CCCCC2)nc2ccccn2c1=O)S(=O)(=O)c1ccccc1	-2%	3%	.	11%	-23%	.	1%	-17%
COc1ccc(/C=C/C(=O)c2cc(Br)ccc(=O)c2O)cc1	?	?	-14%	24%	-24%	?	?	?
CCC(Sc1nnc2c3ccccc3n(CC)c2n1)C(=O)Nc1nnc(C(C)C)s1 (stereo unspecified)	4%[46.1 µM]	5%[46.1 µM]	-0.4%	.	-12%	10%	.	.
COc1ccc(C(=O)Nc2ccc3oc(-c4ccc5ccccc5c4)nc3c2)cc1Br	.	1%[46.1 µM]	-0.2%	.	4%	?	.	.
COc1ccccc1NC(=O)Cc1nnc(SCC(=O)c2ccccc2)n1C	-19%[46.1 µM]	.	.	-3%	3%	.	-5%	-5%
COc1ccc(/C=N/NC(=O)c2cc[n+]([O-])cc2)cc1	2%[46.1 µM]	?	.	1%	-6%	.	1%	7%
O=S(=O)(c1ccc(F)cc1)N1CCN(C(=S)NCc2ccco2)CC1	?	-2%	-3.0%	-5%	-6%	-11%	-22%	8%
CCOc1cccc(CN2CCCC(C(=O)Nc3ccc(-c4ccn[nH]4)cc3)C2)c1O (stereo unspecified)	.	.	.	6%	3%	.	-2%	7%
Cc1ccc(-c2nnn(CC(=O)N(Cc3cccs3)C(C(=O)NC(C)(C)C)c3ccco3)n2)o1 (stereo unspecified)	4%&-9%	-1%	-3.2%	-31%	6%	7%	?	27%
COc1cc(CNCCc2ccc(F)cc2)ccc1OCc1ccc(Cl)nc1	?	-16%	7.6%	-9%	?	3%	-2%	5%
CC/C(=N\Nc1ccc([N+](=O)[O-])cc1[N+](=O)[O-])c1ccc(O)cc1	.	.	.	-8%	-25%	.	0%	-16%
O=C(O)CSCC(=O)N1CCN(S(=O)(=O)c2ccccc2)CC1	-1%[46.1 µM]	3%	.	.	-11%	.	20%	-2%
Cc1ccc(-c2nc(CS(=O)CC(=O)O)c(C)o2)cc1 (stereo unspecified)	.	?	0.0%	.	-23%	5%	.	.
COCCn1c(C)cc(C(=O)COC(=O)c2cccnc2SC)c1C	?	?	.	.	-64%	.	-4%	-10%
CN(Cc1ccccc1)C(=O)c1ccccc1NC(=O)c1ccco1	3%	8%	0.9%	-2%	5%	-20%	16%	-11%
CCOC(=O)/C(=C/Nc1ccc(F)cc1)[N+](=O)[O-]	.	.	.	3%	-13%	.	-6%	4%
COc1ccccc1CCN1CCCC(CN(C)C(=O)c2ccoc2)C1 (stereo unspecified)	.	.	.	-1%	15%	.	-4%	1%
CC(C)(Oc1ccc(Cl)cc1)C(=O)OCC(=O)N1CCCC1	?	0%	3.9%	-1%	?	16%	-1%	-3%
O=C(CSc1nc2ccccc2[nH]1)NCC1CCCO1 (stereo unspecified)	?	8%	0.4%	7%	18%	-11%	28%	9%
O=C(O)C1c2ccccc2C(=O)N(Cc2ccc(F)cc2)C1c1ccncc1 (stereo unspecified)	.	.	.	-1%	-20%	.	0%	14%
CCOC(=O)c1sc(=S)n(CC)c1N	0%	-19%	-6.1%	-33%	11%	-5%	-8%	-23%
O=C(CSc1ccc2ccccc2n1)Nc1nsc(-c2ccc(Cl)cc2)n1	?	16%[46.1 µM]	-0.2%&-1.1%	-7%	13%&4%	32µM*!	-3%	13%
Cc1cccc(CSc2nc3c(c(=O)n2C)SCC3)c1	?	-15%[46.1 µM]	.	.	-30%	.	-8%	0%
NC(=O)c1cc(N)ccc1N1CCCCC1	13%[46.1 µM]	-5%	.	.	12%	.	1%	-1%
CCOc1ccc(NC(=O)C(CC)n2nc(-c3ccc(C)c(C)c3)ccc2=O)cc1 (stereo unspecified)	13%[46.1 µM]	-2%[46.1 µM]	-2.1%	.	0%	-2%	.	.
Cc1ccc(CN2CCS(=O)(=O)CC2)cc1	?	-3%	-7.8%	-3%	-9%	11%	0%	4%

Three entries out of the list, arranged by length of the SMILES, smallest number first.
SMILES	Marburg entry inh	LASV entry inh	Cruzain inh Det	NS1 function inh	2A StopGo	Cruzain inh noDet	SARS PLpro yeast	RE007 growth inh
Cc1cccc(CSc2nc3c(c(=O)n2C)SCC3)c1	?	-15%[46.1 µM]	.	.	-30%	.	-8%	0%
COc1ccccc1CCN1CCCC(CN(C)C(=O)c2ccoc2)C1 (stereo unspecified)	.	.	.	-1%	15%	.	-4%	1%
COc1cc(CNCCc2ccc(F)cc2)ccc1OCc1ccc(Cl)nc1	?	-16%	7.6%	-9%	?	3%	-2%	5%
